Assay outcomes (PubChem BioAssay)
AmpC inh no det: blocks E. coli AmpC beta-lactamase in absence of detergent. Potency, µM (series often up to 28.7 µM), for inactives: at the top dose activity change, negative = inhibition. actives 1.8% (n = 71,000). AmpC nitrocefin hydrolysis, absorbance 480 nm, no detergent; potencies from a single point are estimates. P00811. AID 585; active = falling curve, for most hits resting on a single point; inconclusive = weak or doubtful change; inactive = flat or rising curve; further: % of control where 0% means no effect; about half of the hits show no inhibition at the top dose; a quarter of the inactives give rising signals
Target sequence (P00811 whole entry, looked up): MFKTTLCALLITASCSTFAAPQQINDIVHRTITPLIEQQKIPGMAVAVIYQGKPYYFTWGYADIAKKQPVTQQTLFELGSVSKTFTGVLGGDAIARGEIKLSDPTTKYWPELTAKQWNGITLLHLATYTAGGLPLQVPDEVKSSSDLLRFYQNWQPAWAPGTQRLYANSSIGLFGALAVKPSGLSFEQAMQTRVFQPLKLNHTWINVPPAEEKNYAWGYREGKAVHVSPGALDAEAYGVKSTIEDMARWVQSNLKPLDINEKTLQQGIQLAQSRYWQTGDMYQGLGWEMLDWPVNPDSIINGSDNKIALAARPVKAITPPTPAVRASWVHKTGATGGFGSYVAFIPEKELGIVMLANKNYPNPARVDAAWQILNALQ
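AmpC, 20 mM phosphate pH 7.0; 15 min cpd preinc, RT; start with nitrocefin (800 uM stock); A480 kinetic read, 20 s intervals, 4 min. No-enzyme wells = negative control.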
The depositor's hits bear a star; u = inconclusive; [ ] = another dose, or the depositor's remark. Potency means the concentration at half of the fitted maximal effect. An excerpt, so the mix of outcomes need not match the whole.

SMILES	AmpC inh no det
Nc1c(S(=O)(=O)c2ccccc2)c2nc3ccccc3nc2n1/N=C/c1cccc(O)c1	6%
O=C(NC1CC2CCC1C2)c1ccc(CN2CCOCC2)cc1 (stereo not drawn)	2%
COc1ccc2cc3cc(C(=O)Nc4ccccc4N4CCN(C)CC4)oc3nc2c1	101%
CCN(CC)CCNC(=O)C1c2cc(OC)c(OC)cc2C(=O)N2CCc3ccccc3C12 (stereo not drawn)	0%
COc1cc(OC)cc(-n2nc(C(=O)N3CCC4(CC3)OCCO4)c3ccccc3c2=O)c1	39%
Cc1cccc(OCC(=O)Nc2ccc3c(c2)OCO3)c1C	-4%
COc1cccc(C(c2nnnn2CCc2ccccc2)N2CCN(c3ccccc3)CC2)c1OC (stereo not drawn)	54%
COc1ccccc1-c1nnc(SCC(=O)Nc2c(Cl)cccc2Cl)o1	-14%
COc1ccc(CNCC(=O)N2CCC3(CC2)OCCO3)cc1	-4%
CCOC(=O)c1cc(NC(=O)NCc2ccco2)c(C)nc1C	10%
COc1cc(C(C#N)N2CCOCC2)ccc1O (stereo not drawn)	-5%
Cc1cccc(CNc2ccnc(-c3ccc(C(=O)N(C)C)cc3)n2)c1	100%
Cc1cccc(Nc2nc(N)nc(CN3CCC(C(N)=O)CC3)n2)c1C	-6%
c1ccc(COn2nnc3ccccc32)c(COn2nnc3ccccc32)c1	-3%
COC(=O)c1oc2ccccc2c1NC(=O)CN1CCCC1	-5%
COc1ccc(Nc2cc(C(=O)NCCCN3CCN(C)CC3)c3ccccc3n2)cc1	57%
Cc1ccc(S(=O)(=O)N2Cc3ccccc3CC2C(=O)Nn2cnnc2)cc1 (stereo not drawn)	5%
Cc1cnc(NC(=O)CSc2nnc(-c3ccccc3)o2)s1	2%
CSc1nnc2c(n1)OC(C)N(C(=O)c1ccccc1)c1ccccc1-2 (stereo not drawn)	8%
c1ccc(CCc2cccnc2)nc1	-9%[5.75 µM]
CC1(C)CC(=O)C=C(Nc2ccc(C(=O)O)cc2)C1	-18%
CC(=O)N1CCN2C(=O)C1CCCC(=O)c1cc(C3CCCCC3)ccc12 (stereo not drawn)	86%
COc1ccc(-c2nnc(SCC(=O)Nc3ccc(C)cc3)n2C)cc1	25%
Cc1nonc1NC(=O)CSc1nc(C2CCCCC2)nc2ccccc12	-13%
CN1CCN(CCc2nc3cc(NC(=O)COc4ccccc4)ccc3n2C)CC1	-21%
CC1CCCCN1S(=O)(=O)c1ccc(NC(=O)c2cccc(-n3cnnn3)c2)cc1 (stereo not drawn)	-9%
Cc1cc2c(N3CCCCC3C)ncnc2s1 (stereo not drawn)	-6%
CCNC(=O)c1cc2c(=O)n3cccc(C)c3nc2n(Cc2ccc(C)cc2)c1=N	77%
COc1cccc(-c2nn(-c3ccccc3)cc2CO)c1	2%
COc1ccc(NC(=O)C2CCCN(c3c4c(nc5ncnn35)CCC4)C2)cc1 (stereo not drawn)	52%
Cc1ccc(N(CC(O)COCc2ccco2)S(=O)(=O)c2ccc(C)cc2)cc1 (stereo not drawn)	56%
CCN1CCCC1CNc1ncnc2c1[nH]c1ccc(F)cc12 (stereo not drawn)	-10%
CC(C)CNC(=O)COc1ccc2c3c(c(=O)oc2c1)CCC3	14%
O=C(COC(=O)Cn1cnc2ccccc21)NCCC1=CCCCC1	0%
CCN(CC)CCCN1C(=O)C(O)=C(C(=O)c2sc(C)nc2C)C1c1ccco1 (stereo not drawn)	-8%
CCSCc1nnc(SCC(=O)Nc2nc3ccccc3s2)n1C	2%
CCOC(=O)N1CCN(C(=O)c2ccccc2N(C)S(C)(=O)=O)CC1	10%
COC(=O)C1(C)Nc2ccccc2C(=O)N1c1ccccc1C (stereo not drawn)	-3%
COc1ccc(Oc2ncc3ncc(=O)n(Cc4ccc(F)cc4)c3n2)cc1	102%
CC(=O)c1c(C)n([O-])c2ccccc2[n+]1=O	-13%
c1ccc2[nH]c(NC3=NCCC3)nc2c1	-14%
CN(CCC(=O)Nc1ccc2c(c1)OCO2)Cc1ccccc1	-6%
CCOc1ccccc1NC(=O)NC1CCN(CC(=O)Nc2ccc3c(c2)OCCO3)CC1	54%
COCCCNC(=O)CSC1=Nc2ccccc2C2=NC(Cc3c[nH]c4ccccc34)C(=O)N12 (stereo not drawn)	14%
Cc1ccc(N=Cc2ccc(O)cc2O)cc1F	u
NC(=S)NNC(N)=S	-4%
CCc1nnc(NC(=O)NCN2C(=O)C3C4C=CC(C4)C3C2=O)s1 (stereo not drawn)	2%
Cc1ccc(S(=O)(=O)N[C@H](CN)C(=O)O)cc1	-11%[5.75 µM]

Reprinted from the entries so far (17 entries):
SMILES	AmpC inh no det
CCN1CCCC1CNc1ncnc2c1[nH]c1ccc(F)cc12 (stereo not drawn)	-10%
CC(C)CNC(=O)COc1ccc2c3c(c(=O)oc2c1)CCC3	14%
O=C(COC(=O)Cn1cnc2ccccc21)NCCC1=CCCCC1	0%
CCN(CC)CCCN1C(=O)C(O)=C(C(=O)c2sc(C)nc2C)C1c1ccco1 (stereo not drawn)	-8%
CCSCc1nnc(SCC(=O)Nc2nc3ccccc3s2)n1C	2%
CCOC(=O)N1CCN(C(=O)c2ccccc2N(C)S(C)(=O)=O)CC1	10%
COC(=O)C1(C)Nc2ccccc2C(=O)N1c1ccccc1C (stereo not drawn)	-3%
COc1ccc(Oc2ncc3ncc(=O)n(Cc4ccc(F)cc4)c3n2)cc1	102%
CC(=O)c1c(C)n([O-])c2ccccc2[n+]1=O	-13%
c1ccc2[nH]c(NC3=NCCC3)nc2c1	-14%
CN(CCC(=O)Nc1ccc2c(c1)OCO2)Cc1ccccc1	-6%
CCOc1ccccc1NC(=O)NC1CCN(CC(=O)Nc2ccc3c(c2)OCCO3)CC1	54%
COCCCNC(=O)CSC1=Nc2ccccc2C2=NC(Cc3c[nH]c4ccccc34)C(=O)N12 (stereo not drawn)	14%
Cc1ccc(N=Cc2ccc(O)cc2O)cc1F	u
NC(=S)NNC(N)=S	-4%
CCc1nnc(NC(=O)NCN2C(=O)C3C4C=CC(C4)C3C2=O)s1 (stereo not drawn)	2%
Cc1ccc(S(=O)(=O)N[C@H](CN)C(=O)O)cc1	-11%[5.75 µM]

The list continues:
SMILES	AmpC inh no det
Cc1ccc2c(Cl)cc(Cl)c(OCc3c(C)noc3C)c2n1	4%
O=C(CCCn1c(=O)[nH]c2cc(Cl)ccc2c1=O)NCCN1CCN(c2ccccc2)CC1	93%
CC1=C(C(=O)N2CCc3ccccc32)C2(CCC(C)CC2)OC1=O (stereo not drawn)	55%
CC1CN(CCC(=O)Nc2ccc3c(c2)OCO3)CC(C)O1 (stereo not drawn)	-5%
CCN(CC)CC(=O)Nc1c(C)cccc1C	-5%[12.8 µM]
Clc1ccc2nc(CSc3nnc(-c4c[nH]c5ccccc45)o3)cn2c1	-17%
CS(=O)(=O)N1CCN(C(=O)c2c(F)cccc2F)CC1	5%
COc1ccccc1-c1cc(C(=O)Nc2c(C)n(C)n(-c3ccccc3)c2=O)no1	9%
IC(I)I	-4%
CCCc1cc(C(=O)Nc2cccc(Cl)c2)no1	-23%
O=C(Oc1ccccc1C(=O)Oc1ccccc1)c1ccco1	8%
CCCC1=C(C(=O)OCC)C(c2ccccc2OCC)NC(=O)N1C (stereo not drawn)	49%

Not a retest: an excerpt of the list.
SMILES	AmpC inh no det
O=C(Oc1ccccc1C(=O)Oc1ccccc1)c1ccco1	8%
CCCC1=C(C(=O)OCC)C(c2ccccc2OCC)NC(=O)N1C (stereo not drawn)	49%

Continued:
SMILES	AmpC inh no det
CCOC(=O)C1CCN(C(c2cc3ccc(C)cc3[nH]c2=O)c2nnnn2C2CCCCC2)CC1 (stereo not drawn)	58%
COc1ccc(N(C)S(=O)(=O)c2ccc3c(c2)oc(=O)n3C)cc1	3%
COc1ccc(NC(=O)CSc2nnc(Cc3cccn3C)n2CCc2ccccc2)cc1OC	120%
O=C1CC(N2CCC(n3c(=O)[nH]c4ccccc43)CC2)C(=O)N1Cc1ccccc1 (stereo not drawn)	75%
COC(=O)c1sc(S(=O)(=O)N2CCCCC2)c(C(=O)OC)c1C	32%
N=C1C=CC(=C(c2ccc(N)cc2)c2ccc(N)cc2)C=C1	u
c1ccc(-n2c(SCC3CCCCO3)nnc2-c2cccs2)cc1 (stereo not drawn)	76%
COC(=O)N1CCC[C@@]2(CCN(c3ccccn3)C2)C1	31%
O=C(NCCCN1CCOCC1)c1ccc(CS(=O)(=O)c2ccc(Br)cc2)o1	4µM*[single pt active]
CCn1c(SCC(=O)Nc2nc3ccc(OC)cc3s2)nnc1-c1ccoc1C	26%
Cc1cc(-c2ccccc2)nn1-c1nc2c(c(=O)[nH]c(=O)n2C)n1C	1%
CC(=O)Nc1ccc(S(=O)(=O)N2CCN(c3nc(NC4CCCC4)c4ccccc4n3)CC2)cc1	85%
Oc1c(Cl)cc(Cl)cc1Sc1cc(Cl)cc(Cl)c1O	u
Cc1ccc(NC2=NCC(=O)N2Cc2ccc3c(c2)OCO3)cc1	17%
NC(=O)NCC12CC3CC(CC(C3)C1)C2	-5%
CCOC(=O)Cc1nn(CCc2ccccn2)c(=O)c2ccccc12	-10%
COc1cc(-c2cc(C(=O)N3CCN(c4ccccn4)CC3)c3ccccc3n2)cc(OC)c1OC	136%
Cc1ccc(S(=O)(=O)NC(=O)OC23COCN2COC3)cc1	-1%[5.75 µM]
N#Cc1nc(COc2ccc(F)cc2)oc1NCCCn1ccnc1	25%
CCOC(=O)c1cc2sccc2n1CC(=O)N1CCCC1	6%
CCCCCCOc1cccc(N)c1	-9%
CC(C)N(CC(=O)O)CC(=O)O	1%[5.75 µM]
CCCN(CCC)c1ncnc2nc[nH]c12	2%
CCCc1nc2sc3ccccc3c(=O)c2c(=O)n1Cc1ccco1	4%
CC(C)Cn1c(CCC(=O)O)ccc1-c1cccs1	2%
COc1ccc(CNc2nc(-c3ccc(N(C)C)cc3)nc3ccccc23)c(OC)c1	14%
CC(=O)c1ccc(S(=O)(=O)NCCCC(=O)NCCc2ccccn2)cc1	-6%
CCOC(=O)c1nnn(-c2nonc2N)c1CN(C)Cc1ccccc1	5%
Cc1cc2sc(C)[n+](CCCOS(=O)(=O)O)c2cc1C	8%[5.75 µM]
CCCCc1nc2ccccc2c(=O)n1-c1ccc(O)cc1	0%
COc1ccc(-n2c(N)c(C(=O)NCc3ccco3)c3nc4ccccc4nc32)c(OC)c1	77%
O=C(Nc1ccc(N2CCOCC2)c(Cl)c1)c1ccc(Br)o1	4%
COCCCN1C(=O)C(=O)/C(=C(/O)c2ccc(OC(C)C)cc2)C1c1ccc(O)c(OC)c1 (stereo not drawn)	-6%
CN(CC(=O)NC1CCCCCC1)S(=O)(=O)c1ccccc1	0%
O=C(Cn1nnc(-c2ccc(Cl)cc2)n1)NC1CC2CCC1C2 (stereo not drawn)	-6%
Cc1sc2nc(C(C)C)nc(SCC(=O)NCc3ccco3)c2c1C	23%
CCOC(=O)N1CCN(C(=O)CN(c2ccc(Cl)c(C(F)(F)F)c2)S(C)(=O)=O)CC1	106%
Cc1ccc2c(CSc3nnc(C4CC4)n3N)cc(=O)oc2c1	-7%
O=C(O)C12C3CCCC1C32c1ccccc1 (stereo not drawn)	5%
COCCNC(=O)C1CCCN(c2ncccn2)C1 (stereo not drawn)	-2%
CCCCCNC(=O)C(C)NS(=O)(=O)c1ccc(OC)cc1 (stereo not drawn)	1%
COC(C)(C)[C@]12CC(O)(c3ccccc3)ON1[C@H]1CCCCC1N2O (stereo partly drawn)	6%
COc1ccccc1CNC(=O)CN1C(=O)C(C)N(c2ccc(C)cc2)C1=O (stereo not drawn)	17%
Cc1cc(C(=O)CSC(=S)SC(C)(C)C)ccc1Cl	-11%[5.75 µM]
Cc1cc(=O)n2c(ccc3ccccc32)c1C#N	8%
FC(F)(F)C1=NC(C(F)(F)F)=NP(N2CCOCC2)(N2CCOCC2)=N1	4%
O=C(COC(=O)c1ccccn1)Nc1ccccc1Cl	1%
CCC(C)Sc1nc2c(cnn2-c2ccccc2)c(=O)[nH]1 (stereo not drawn)	-1%
O=C(c1ccco1)N1CCN=C1SCc1cccc(Cl)c1	5%
c1nnn(C23CC4CC(CC(C4)C2)C3)n1	86%
O=C(CN1CCN(Cc2cccc(Cl)c2)C1=O)N1CCC2(CC1)OCCO2	23%
CCOC(=O)c1c(C)nn(Cc2ccccc2)c1N	7%
CCOc1ccc(N2CCCn3c2nc2c3c(=O)n(CCc3ccccc3)c(=O)n2C)cc1	61%
COC(=O)c1ccccc1NC(=O)C1CCN(S(C)(=O)=O)CC1	8%
O=C(c1cc(-c2cccs2)on1)N1CCc2ccccc2C1	2%
CCN1CCC[C@H]1CNC(=O)c1c(OC)ccc(Br)c1OC	5%
c1coc(-c2nnc(SCc3cn4ccccc4n3)o2)c1	-9%
COc1ccc(CCN(C)CCC[C@@](C#N)(c2cc(OC)c(OC)c(OC)c2)C(C)C)cc1OC	77%
COC(=O)c1ccc(CSc2nnc(NCc3ccccc3)s2)o1	-13%
CCOc1ccc(S(=O)(=O)NCc2csc(C)n2)cc1	-5%

Further entries
SMILES	AmpC inh no det
CCCc1nnc(SCCSc2nnc(CCC)n2N)n1N	-3%
O=c1c(-c2ccc(F)cc2)nc2cnc(Oc3ccccc3)nc2n1C[C@H]1CCCO1	28%
O=C(c1ccc(S(=O)(=O)NCC2CCCO2)cc1)N1CCc2ccccc21 (stereo not drawn)	22%
COCc1cc(C)nc(N2CCOCC2)c1C#N	4µM*[single pt active]
CN(C)S(=O)(=O)N1CCCN(S(=O)(=O)N(C)C)CC1	0%
Cc1ccc(NC(=O)C2CCCN(S(=O)(=O)c3cccs3)C2)cc1 (stereo not drawn)	u
CCOc1ccccc1N=C1SCCCN1C	1%
NC(=O)c1ccc(C(=O)Nc2ccc([As](=O)(O)O)cc2)cc1	-4%[5.75 µM]
CCCCN(CC)S(=O)(=O)c1ccc(C(=O)Nc2nnc(-c3cccs3)o2)cc1	u
CC(C)Cn1c(=O)n(C)c(=O)c2[nH]cnc21	1%
CCCC(=O)N=C1SC2CS(=O)(=O)CC2N1c1ccc(CC)cc1 (stereo not drawn)	18%
COc1ccc(-c2nsc3c(N4CCCC4)ncnc23)cc1	52%
O=C(Nc1ccc2oc(-c3ccccc3)nc2c1)c1ccc2c(c1)OCCO2	25%
